PINK1 modulator – PINK1 expression modulation. PINK1 immunofluorescence, high-content cytometry, 24 h. Potency, µM (top dose mostly 76.6 µM), for the others: at the highest dose activation (PINK1 increase), most hits filed as activators. actives 0.2% (n = 410,000). AID 624263; active = well fitted activation curve with a large enough effect; inconclusive = small, poorly fitted or top-dose-only effect; inactive = flat fitted curve, though single readings scatter; cell line not stated here;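 further: potency means the concentration at half of the fitted maximal effect; % of control where 0% means no effect; nearly all actives have a fitted effect of over 65% in size; a mitochondrial uncoupler was the plate control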
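Fluorescence from anti-PINK1 antibody, together with nuclear and cell stains, was scanned on a laser-scanning cytometer. Before staining, stable-line cells were incubated 24 hours with compounds at 5 concentrations; primary antibody 12 h at 10 degrees C.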
D2 agonist – human D2 receptor agonism in beta-arrestin assay. P14416. DiscoveRx PathHunter D2 beta-arrestin, luminescence, 90 min; 100% = 57 uM dopamine signal. activation, % (no concentration beside the values). actives 0.084% (n = 360,000); in the data active = activation above about 40%; inconclusive = about 15% to 40%; inactive = below about 15%; further: compound concentration not given in the record; the text of the record calls up to 30% inactive
Target sequence (P14416 whole entry, looked up): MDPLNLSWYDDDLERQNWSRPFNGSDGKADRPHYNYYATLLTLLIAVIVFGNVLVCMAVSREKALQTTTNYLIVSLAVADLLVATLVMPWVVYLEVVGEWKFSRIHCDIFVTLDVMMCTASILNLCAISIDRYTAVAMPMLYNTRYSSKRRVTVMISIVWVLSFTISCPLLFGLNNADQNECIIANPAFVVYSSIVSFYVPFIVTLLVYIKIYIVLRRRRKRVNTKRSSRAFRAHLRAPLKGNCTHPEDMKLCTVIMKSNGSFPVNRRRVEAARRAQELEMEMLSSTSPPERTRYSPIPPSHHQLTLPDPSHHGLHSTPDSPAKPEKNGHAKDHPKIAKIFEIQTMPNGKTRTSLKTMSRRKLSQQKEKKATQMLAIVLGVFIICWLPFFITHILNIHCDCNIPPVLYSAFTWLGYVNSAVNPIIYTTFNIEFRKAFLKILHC
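DiscoveRx PathHunter D2 beta-arrestin cells (2,100/well) attached overnight, then compound-stimulated 90 min at 37 C in HBSS/10 mM HEPES/0.1% Tween-20 buffer; beta-galactosidase complementation read by luminescence after 1 h at ambient temperature. Dopamine 57 uM final (EC100) as control.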
D2 PAM – positive allosteric modulators of human D2 dopamine receptor | P14416 | DiscoveRx D2 beta-arrestin cells, luminescence, 90 min; 100% = 57 uM dopamine signal | potentiation, % (concentration not given with the values) | actives 0.23% (n = 360,000) | AID 624464; active = potentiation of 50% or more; inconclusive = 30% to 50%; inactive = 30% or less;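 further: compound concentration not given in the record; tested on top of an EC20 dose of dopamine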
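PathHunter D2 cells, attached overnight at 37 deg C, received compound in DMSO plus dopamine at EC20 (50 nM final) for 90 min at 37 deg C. Beta-arrestin recruitment was read as luminescence after 1 h with detection reagent at ambient temperature.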
CtBP-E1A inh – CtBP/E1A binding inhibition; actives 0.49% (n = 340,000); activity change, % (test concentration not listed); AlphaScreen GST-E1A/His-CtBP binding, 1536-well; hits give low values; control for the full effect not named in the record; AID 651724; in the data active means activity change below about -65%; inconclusive means about -30% to -65%; inactive means above about -30%; further: on the % scale 0 is the no-effect control and ±100 the full control effect; compound concentration not given in the record
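GST-E1A and His-tagged CtBP (125 nM each as 5X stock) were preincubated with pin-transferred compound for 2 h at 37 °C in the dark, then glutathione donor and nickel acceptor beads were added for 1 h before AlphaScreen reading.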
TRPML1 ag – activates the human TRPML1 channel; Q9GZU1; TRPML1-expressing cells, Ca2+ dye fluorescence, FDSS; host cell line not named in the record; reference of the full effect not given here; activation, % (no concentration beside the values); actives 0.12% (n = 410,000); in the data active = activation above about 50%; inconclusive = about 30% to 50%; inactive = below about 30%; further: 0% is about no effect; the text of the record puts the active cut at 80%
Target sequence (Q9GZU1 whole entry, looked up): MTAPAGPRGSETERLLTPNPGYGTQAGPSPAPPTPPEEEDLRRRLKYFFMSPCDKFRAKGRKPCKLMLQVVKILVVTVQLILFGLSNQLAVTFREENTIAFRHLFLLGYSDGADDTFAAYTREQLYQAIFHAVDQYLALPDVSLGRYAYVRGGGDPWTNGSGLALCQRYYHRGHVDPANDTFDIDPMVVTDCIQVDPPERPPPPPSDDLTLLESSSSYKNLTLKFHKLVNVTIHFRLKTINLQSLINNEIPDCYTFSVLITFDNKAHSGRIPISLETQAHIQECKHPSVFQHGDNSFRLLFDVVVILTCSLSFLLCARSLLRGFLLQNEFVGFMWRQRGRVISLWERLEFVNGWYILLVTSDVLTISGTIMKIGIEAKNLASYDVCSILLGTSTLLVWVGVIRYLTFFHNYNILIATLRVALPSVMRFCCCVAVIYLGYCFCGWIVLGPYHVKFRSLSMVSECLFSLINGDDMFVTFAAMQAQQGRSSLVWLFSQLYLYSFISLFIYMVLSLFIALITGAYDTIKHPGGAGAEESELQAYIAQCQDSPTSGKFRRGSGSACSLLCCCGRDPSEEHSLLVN
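Tetracycline-induced TRPML1-DL cells are seeded and incubated overnight before loading with a no-wash Ca2+ dye and quencher. Agonist activity is taken from the 110 s fluorescence read following compound pin-transfer on an FDSS, before EC80 54-4 challenge.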
Six1-Eya2 blk – Six1/Eya2 interaction inhibition; activity change, % (no concentration beside the values); AlphaScreen GST-Six1/His-Eya2 binding, biochemical; hits give low values; control for the full effect not named in the record; actives 0.56% (n = 360,000); Q15475+O00167; in the data active = activity change below about -65%; inconclusive = about -30% to -65%; inactive = above about -30%; further: on the % scale 0 is the no-effect control and ±100 the full control effect; compound concentration not given in the record
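AlphaScreen with GST-Six1 and His-Eya2 (5X mix: 250 nM and 500 nM), glutathione donor and nickel acceptor beads; buffer 50 mM Tris pH 8.0, 300 mM NaCl, 1 mM TCEP; 1 h at 37 C in the dark.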
* = called active by the depositor; ? = inconclusive; . = not tested or not shown; & = joins results of further samples; [ ] = remark or other dose.

SMILES	PINK1 modulator	D2 agonist	D2 PAM	CtBP-E1A inh	TRPML1 ag	Six1-Eya2 blk
CN(NC1OC(=O)c2ccccc21)c1ccc(C(F)(F)F)cc1[N+](=O)[O-] (stereo not given)	2.2%	1.8	0	0	0.3	0
COC(=O)c1ccccc1N=Nc1c(C)noc1C	18%	-0.6	-3	-3	1.2	-6
Cc1cc(C)n(C(=O)CNC(=O)c2ccco2)n1	?	-1.1	-6	6	0.4	3
O=C(c1cn(-c2ccccc2)nc1-c1ccccc1)n1nnc2ccccc21	1.3%	-3.2	-3	8	-0.6	12
O=C(Nc1ccc(S(=O)(=O)N2CCCC2)cc1)c1cccnc1	-0.8%	0.0	-7	-1	-0.3	7
Cc1ccccc1-c1cc(C(=O)N2CCCC2)c2ccccc2n1	2.3%	0.8	-1	10	0.5	-3
Cc1cc(=O)oc2cc(N3C(=O)CC(Cc4ccccc4)C3=O)ccc12 (stereo not given)	2.7%	-2.8	-8	-1	-0.2	0
Cc1ccc(-n2[nH]c(C)c(C=NCc3ccncc3)c2=O)cc1	2.4%	-1.6	-6	2	-0.6	6
O=S(=O)(c1cccc(C(F)(F)F)c1)N1CCN(C(=S)NC2CC2)CC1	3.3%	-0.5	-9	2	-0.2	1
O=C(Nc1ccccc1SCC1CSc2nc3ccccc3c(=O)n21)c1ccccc1Cl (stereo not given)	1.1%	-0.3	-17	-4	1.2	-2
COCC(=O)n1nc(-c2ccccc2)nc1NCc1ccc(F)cc1	-1.4%	-4.4	-13	6	0.7	3
S=C(NCc1ccco1)Nc1cc(-c2ccccc2)[nH]n1	-1.1%	6.1	-1	-21	1.0	-6
O=C(COc1ccccc1)N1CCN(S(=O)(=O)c2cccc([N+](=O)[O-])c2)CC1	0.3%	1.7	15	7	0.7	-2
CC(C)(C)n1nnnc1C(c1ccccc1)N1CCN(c2ccccc2)CC1 (stereo not given)	-0.1%	.	.	-10	8.5	11
COc1cc(C(=S)N(C)C)ccc1O	0.4%	-2.0	?	-7	-0.8	-3

The last three compounds of the section before open the next one:
SMILES	PINK1 modulator	D2 agonist	D2 PAM	CtBP-E1A inh	TRPML1 ag	Six1-Eya2 blk
O=C(COc1ccccc1)N1CCN(S(=O)(=O)c2cccc([N+](=O)[O-])c2)CC1	0.3%	1.7	15	7	0.7	-2
CC(C)(C)n1nnnc1C(c1ccccc1)N1CCN(c2ccccc2)CC1 (stereo not given)	-0.1%	.	.	-10	8.5	11
COc1cc(C(=S)N(C)C)ccc1O	0.4%	-2.0	?	-7	-0.8	-3
COc1cccc(CNC(=O)Cc2ccc(-n3c(=O)[nH]c4ccccc4c3=O)cc2)c1	?	-4.9	4	-2	-1.2	-1
O=C(CSc1nncc2ccccc12)Nc1cccc(C(=O)O)c1	0.1%	-7.6	-8	5	.	-3
O=C(C1CC1)N1CCc2cc(S(=O)(=O)N3CCN(c4ccccc4)CC3)ccc21	0.0%	-8.0	-9	.	1.3	-3
COCCN(C(=O)COC(=O)CCc1nc2ccccc2s1)c1c(N)n(Cc2ccccc2)c(=O)[nH]c1=O	-0.6%	-2.1	3	-2	0.5	15
O=C(NN1CCOCC1)c1cc(-c2ccccc2)nc2ccccc12	0.9%[38.3 µM]	-0.8	6	6	0.1	4
COc1ccc(C2(CNC(=O)c3cccc([N+](=O)[O-])c3)CCOCC2)cc1OC	2.7%	-4.4	1	-1	-0.1	10
Cc1ccc2cc(CNC(C)C)c(=O)[nH]c2c1	-0.2%	-3.7	-12	-1	-0.3	-3
Cc1cccc(Nc2cc(=O)[nH]c(=O)[nH]2)c1	-2.2%	-2.8	10	-1	-0.2	11
C/C(=N\NC(=S)Nc1c(C)cccc1C)c1ccc(O)cc1	-0.1%	0.5	0	-4	.	-3
Cc1onc(-c2ccccc2Cl)c1C(=O)Nc1ccc(-c2cn3cccnc3n2)cc1	5.1%[38.3 µM]	1.2	11	-4	1.2	1
Cc1ccc(S(=O)(=O)N2CCC(C(=O)Nc3ccc4c(c3)OCO4)CC2)cc1	.	-1.8	-24	-2	1.0	-7
CN(CC#CC1(O)c2ccccc2-c2ccccc21)Cc1ccccc1	7.4%	-8.1	-2	1	-0.7	-4
COc1ccc(C(=O)Nc2cccc(C)c2)cc1	.	-1.2	-5	1	0.0	5
O=[N+]([O-])c1cccc(CN2C[C@@]34C=C[C@@H](C[C@@H]3S2(=O)=O)O4)c1	0.3%	1.7	-9	3	-0.4&-0.1	5
COc1ccc2ccc(O)c(CN3CCN(S(=O)(=O)c4cccc(C(F)(F)F)c4)CC3)c2c1	-0.3%	8.9	1	-20	1.6	-13

Record cards (already shown). Values in the order: PINK1 modulator	D2 agonist	D2 PAM	CtBP-E1A inh	TRPML1 ag	Six1-Eya2 blk
`Cc1ccc(S(=O)(=O)N2CCC(C(=O)Nc3ccc4c(c3)OCO4)CC2)cc1` reads .	-1.8	-24	-2	1.0	-7
`Cc1cccc(Nc2cc(=O)[nH]c(=O)[nH]2)c1` reads -2.2%	-2.8	10	-1	-0.2	11

Other records follow.
SMILES	PINK1 modulator	D2 agonist	D2 PAM	CtBP-E1A inh	TRPML1 ag	Six1-Eya2 blk
CCOc1cc(-c2nn3cnnc3s2)cc(OCC)c1OCC	-2.5%	-2.3	1	-1	1.3	-2
C/C(=N\NC(=O)C1(C)CC1(Br)Br)c1ccc([N+](=O)[O-])cc1 (stereo not given)	1.1%	2.4	7	2	-0.1	-1
COc1ccc(CC(=O)Oc2ccc(Cl)cc2Br)cc1S(=O)(=O)N1CCOCC1	0.8%	-6.7	4	0	0.6	-12
O=C(Nc1ccccc1C(=O)N1CCOCC1)C1CC(=O)N(C2CCCC2)C1 (stereo not given)	-3.0%[38.3 µM]	0.8	-5	-6	0.3	-1
COc1ccc(N2CCN(CC(=O)N3N=CCC3c3ccccc3)CC2)cc1 (stereo not given)	3.7%	0.2	-3	3	1.0	6
Cn1c(Cn2nnc3ccccc32)nnc1SCC(=O)c1ccc(F)cc1	-1.1%[38.3 µM]	0.8	-8	6	-0.5	7
COc1ccc(CCN=CC2=C(O)CCCC2=O)cc1OC	0.7%	-3.6	-16	5	-0.5	0
O=C(O)CC(NC(=O)Cc1ccccc1)c1ccccc1 (stereo not given)	-0.4%	-0.2	-10	.	.	-4
COc1ccc(NC(=O)C2CCC(CNc3c(N4CCC(C)CC4)c(=O)c3=O)CC2)cc1OC (stereo not given)	4.9%&2.0%	-1.4&1.1	-5&-2	3&-11	-0.4&-0.4	-4&-29
COc1ccc(C2(C)NC(=O)N(CC(=O)Nc3ccc(C)cc3Br)C2=O)cc1OC (stereo not given)	-2.7%	-1.4	1	-1	0.8	2
COc1ccc(C(=O)c2c(C)oc3cc([N+](=O)[O-])c(O)c([N+](=O)[O-])c23)cc1	1.2%	-11	-27	-15	0.9	-15
Cc1ccc([N+](=O)[O-])cc1S(=O)(=O)Nc1ccc(C(=O)NCC2CCCO2)cc1 (stereo not given)	2.2%	1.3	0	1	-0.5	-2
Cc1cc(C(=O)Nc2c(F)cc(F)cc2Br)c(C)o1	0.6%[38.3 µM]	-3.9	-8	-13	0.5	-10
Cc1ccc(O)c(C(=O)c2cnn(C(=O)COc3ccc(Cl)cc3)c2)c1	-0.2%	-2.7	-13	0	-0.4	13
Cc1cccc(N2C(=O)N3[C@H]4c5ccccc5OC[C@@H]4[C@@H](c4ccccc4)[C@@]3(C)C2=O)c1	0.2%	-3.0	-1	-5	0.3	-9
Cc1ccc(CS(=O)(=O)c2nc3c(c(N(C)C)n2)CCCC3)cc1	3.0%	-12	-2	2	-1.3	3
Cc1c(C(=O)N(C)CCOc2ccccc2)oc2c(Cl)cccc12	4.4%	-2.4	-23	28	2.4	19
O=C(NCc1nnc(SCc2ccc(F)cc2)n1-c1ccc(F)cc1)C12CC3CC(CC(C3)C1)C2	23%	-3.2	-13	-7	0.3	-14
C[C@@H]1Cn2cnc(C(=O)N[C@@H](C)c3ccccc3)c2C(=O)N1	1.2%	-6.3	2	8	-0.5	-1
COc1ccc(NC(=O)CSCC(=O)NC2(C)CCS(=O)(=O)C2)cc1 (stereo not given)	1.8%	-2.0	-18	19	-0.6	4
COc1ccc(-c2noc(N3CCC(C(=O)NCc4ccc(F)cc4)CC3)n2)cc1	9.5%	0.1	-9	5	-0.3	5
Cc1cc2occ(CC(=O)N(C)CC(=O)Nc3cccc(F)c3)c2cc1C	6.0%	-1.4	-4	-20	1.8	3
CCCCNC(=O)c1cc2c(=O)n3cccc(C)c3nc2s1	1.5%&-0.5%	1.3	-14	-15	0.5&0.8	-5
Nc1nc(SCC(=O)N2CCOCC2)n[nH]1	2.1%	-1.8	-8	.	-0.4	11
CCN(CC)c1ccc(S(=O)(=O)N2CCOCC2)cc1NC(=O)CN1CCN(Cc2ccccc2)CC1	12%	-3.2	-20	-2	-0.8	-21
O=C(CN1CCN(C/C=C/c2ccccc2)CC1)Nc1cc([N+](=O)[O-])ccc1Cl	5.4%	-3.2	-25	-27	0.5	-25
O=C(Cc1coc2cc3c(cc12)CCC3)NC1CCCCCCC1	8.0%	0.2	-6	15	0.6	-21
CCOc1ncccc1C(=O)Nc1cc(S(=O)(=O)N2CCOCC2)ccc1N1CCCC1	0.1%	-1.4	-5	-14	-1.4	11
O=C(C1CC(=O)N(c2ccc3c(c2)OCCO3)C1)N1CCN(S(=O)(=O)c2ccc(F)cc2)CC1 (stereo not given)	-0.1%	-0.3	-1	-1	0.8	3
COc1ccc(NS(=O)(=O)c2cc(NC(=O)CCSc3ccccc3)ccc2OC)cc1	2.1%	-0.8	15	-6	0.5	-17
CS(=O)(=O)c1ccc2nc(NC(=O)Cc3ccccc3)sc2c1	-0.1%	-3.2	-12	1	0.1	2
Cc1ccc(NC2(C#N)CCCC2)cc1	1.2%	-4.1	-12	-9	1.6	-11
NS(=O)(=O)c1ccc(CCNC(=O)CN2CCN(c3cccc(Cl)c3)CC2)cc1	-2.4%	3.7	8	2	-0.3	-3
CCN(CC)c1ccc(/C=N/NC(=O)c2cccc(S(=O)(=O)N3CCOCC3)c2)cc1	0.5%	-0.6	10	-12	-0.3	1
CCN(CC)c1nc(-c2nn[nH]n2)nc(N(CC)CC)n1	-0.8%	-0.3	-1	-1	0.4	0
COc1ccc2nc(NC(=O)CNS(=O)(=O)c3cccs3)sc2c1	20%[38.3 µM]	-1.6	2	1	0.3	0
O=C(Nc1cccc(C(=O)O)c1)/C(=C\c1ccc2c(c1)OCO2)NC(=O)c1ccccc1Br	1.0%	-4.9	-11	-21	-0.6	5
CCN(CC(=O)Nc1ccc(C(C)=O)cc1)CC(=O)Nc1ccc2c(c1)OCCO2	1.4%	-4.6	-8	-4	0.6	2
O=C(NC(Cc1ccccc1)C(=O)OCC(=O)N1CCc2ccccc21)c1ccco1 (stereo not given)	0.4%	1.0	-21	-1	0.4	-8
COc1ccc(CCNC(=O)c2c[nH]c3ccc(F)cc3c2=O)cc1OC	1.0%	?	8	-3	-0.5	-12
Cc1cc(C)c(S(=O)(=O)c2ccccc2)c(OC(=O)c2c(F)cccc2Cl)n1	-1.0%	-1.3	6	7	2.0	4
O=C(COC(=O)c1ccc([N+](=O)[O-])cc1)NC1CCCC1	-2.5%	-3.8	-2	-6	0.4	1
